Bioassay records: PubChem, ICCB-Longwood Screening Facility, Harvard Medical School
CapD inh: blocks the Bacillus anthracis CapD enzyme | 140,000 compounds, 0.23% hits | z-score (no concentration beside the values) | purified CapD enzyme, fluorescence intensity read-out; hits give low values; some hits fall short of the stated cut;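 active means z-score under -4 in either of two replicates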;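 further: stock transfer was 100 nL into about 40 µL; score is relative to mean and spread of the plate; one replicate is shown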
AID504770: growth inhibitors of E. coli YBA685 in a screen for V. cholerae RctB (chromosome II replication) inhibitors | E. coli YBA685 rctB-dependent plasmid, OD600 growth, 3 h; hits give low values | z-score (concentration not given with the values) | 130,000 compounds, 0.27% hits | AID 504770;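 active means z-score under -2 on both plates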;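 further: wells of about 30 µL received 100 nL stock; score is relative to mean and SD of the test wells; the first replicate is given; strong numbers were not always called active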
The depositor's hits bear a star; . = no result given; & = joins results of further samples. This is a random part of the collection, and some 0.41% of all compounds hit somewhere here.

SMILES	CapD inh	AID504770
O=C(NCC1CCCO1)c1cc2ccccc2oc1=O (centres undefined)	.	0
Cc1ccccc1CN(C)C(=O)C1CC(=O)N(Cc2ccccc2)C1 (centres undefined)	.	1.9
COCC(C)NS(=O)(=O)c1ccc(F)cc1 (centres undefined)	-0.15	-0.05
Cc1ccccc1N(C)C(=O)c1cn(C)c(=O)c2ccccc12	5	-0.2
O=C1C(c2cc(Cl)cc(Cl)c2)=C(O)c2ccccc21	-2.9	0.45
O=C(CC(C(=O)O)C1CCCO1)NCc1ccccc1 (centres undefined)	-0.085	-1.1
CC1(C)CC(=O)C(C=NCc2ccco2)=C(O)C1	0.42	-0.2
CC(C)CNC(=O)C1(c2cccs2)CCOCC1	.	-0.1
C=CCn1c(NCc2ccc(Cl)cc2)nc2ccccc21	-0.47	-0.1
COc1ccc(N=c2scc(C)n2C(=O)c2ccccc2Cl)cc1	1.1	-0.1
CCN1CCC(=NNc2ccc(Cl)c(C(=O)O)c2)CC1	.	1.1
S=C(Nc1ccccc1)Nc1ccc2c(c1)oc1ccccc12	26	0.95
CCCN(CCC)S(=O)(=O)c1ccc(C(=O)Nc2nc3ccc4sc(C)nc4c3s2)cc1	0.55	.
O=C(O)c1cccc(-n2cccc2C=NO)c1	-1.3	-1.1
Cc1nn(-c2ccccc2)nc1C(=O)Oc1cncc(Cl)c1	0.45	-0.55
FC(F)(F)c1cc(-c2cccs2)nc2c1cnn2Cc1cccnc1	.	1.1
CN(C(=O)Cn1c(=O)n(-c2ccccc2)c(=O)c2c3c(sc21)CCC3)c1ccccc1	-0.45	-0.4
Cc1ccnc(NC(=O)CCCOc2ccc(Cl)cc2Cl)c1	.	0.75
CC(C)c1nc2ccccc2c2c1C(=O)N(CC(=O)Nc1ccc3ccccc3c1)C2=O	0.89	.
O=C(Cn1nc(C(F)F)cc1C1CC1)NCCC1=CCCCC1	.	-0.5
NC(=O)N[C@@H]1O[C@H](CO)[C@@H](O)[C@H](O)[C@H]1O	0.19	.
Cc1nn(-c2ccccc2)c(C)c1C(O)c1nnc(-c2ccccc2)o1 (centres undefined)	.	-0.1
Cc1c(/C(CC(C)C)=N/O)c2ccccc2n1C	.	-0.3
NC(=S)N1CCCC1	.	0.15
Cc1cccc(Oc2ccc(NC(=O)C3CCC(C)CC3)cc2)c1 (centres undefined)	8.4	0.2
CN(Cc1ccccc1)C(=O)COC(=O)c1ccccc1O	-0.86	-0.6
COc1ccc(C2CC(=O)C3=C(C2)Nc2ccccc2NC3c2cc(OC)c(OC)cc2Br)cc1 (centres undefined)	-0.89	.
CCc1ccc2nc(SCC(=O)N3CC(=O)Nc4ccccc43)c(C#N)cc2c1	.	0.9
CCn1cc(-c2ccccc2)c(C(=O)O)c1C	.	-0.4
N=C(N)N=Nc1c(O)[nH]c2ccccc12	-3.7	-0.75
COc1cc(S(=O)(=O)N2CCN(Cc3ccccc3)CC2)c(OC)cc1Cl	0.63	0.65
C#CCN1C(=O)C(O)(CC(=O)c2ccccc2)c2ccccc21 (centres undefined)	.	-0.15
CCN(CC)C(=O)Nc1c(C)cc(C)cc1C	-0.52	-0.6
CC(C)(C)Sc1ccc(C(=O)O)s1	0.45	-0.3
COc1ccc(C(=O)COc2ccccc2C(N)=O)cc1	-0.23	1.4
O=C(c1ccc(Cl)cc1)N1CCc2sccc2C1c1ccc(Cl)cc1 (centres undefined)	-0.21	1.4
CCCc1cc(C(=O)O)n[nH]1	.	-0.05
COc1ccc(N/C=C/c2nc(SCc3ccccc3)nnc2C)cc1	-0.17	.
COC(=O)c1cccc(Oc2nc(Nc3ccccc3F)nc(N3CCC4C=CC=CC4C3)n2)c1 (centres undefined)	-0.2	-0.05
O=C(Cc1ccccc1)Nc1c[nH]c(=O)[nH]c1=O	-0.57	-0.45
Cc1c(C(=O)N2CCOCC2)oc2ccc3c(c12)C(=O)CC(C)(c1ccc(Cl)cc1)O3 (centres undefined)	0.85	0.35
Cn1c(C(=O)O)c(CC(=O)NCc2cccnc2)c2ccccc21	0.24	.
O=C1CC(NCCc2ccccc2)C(=O)N1c1ccccc1 (centres undefined)	.	-0.3
Cc1ccc(C(=O)OCC(=O)N2c3ccccc3CC2C)cc1 (centres undefined)	.	-0.3
Cc1cc(Oc2ccc([N+](=O)[O-])cc2)c(Cl)c(C)c1Cl	0.66	.
NNC(=O)c1ccc2c(c1)OCCO2	-0.56	.
O=c1cnn(-c2ccccc2)c(-c2ccccc2)c1	.	-0.5
COc1ccc(OC)c(NC(=S)NCc2ccc3[nH]c(C)cc3c2)c1	0.23	-0.85
O=C(NNC(=O)c1cnn(-c2ccc([N+](=O)[O-])cc2)c1C(F)(F)F)c1ccc(C(F)(F)F)cc1	0.29	.
COc1ccc(C(=O)N/N=C/c2cccc([N+](=O)[O-])c2)cc1OC	-1.1	.
N#C/C(=C\Nc1cccc(C(F)(F)F)c1)c1ccc(OCCCF)cc1	-0.61	.
CCCOc1cccc2ccccc12	0.24	-0.8
O=C1CCN(S(=O)(=O)c2ccc(Br)cc2)CCN1	.	-0.9
O=C(Nc1ccc2c(c1)oc1ccccc12)C1CCCO1 (centres undefined)	.	0.05
O=C(Nc1ccc2c(c1)nc1n2CCCCC1)c1ccccc1NS(=O)(=O)c1cccs1	.	-0.15
Nc1ncc(-c2cnccn2)c(-c2ccc(C(F)(F)F)cc2)n1	-0.65	.
COc1ccc(C)cc1S(=O)(=O)N(C)C1CCN(Cc2cc3c(cc2Cl)OCO3)C1 (centres undefined)	0.095	.
CC/C(=N\OC(=O)CC12CC3CC(CC(C3)C1)C2)c1ccc(-c2ccccc2F)cc1	0.5	.
Cc1c(C(=O)NCCCN2CCCCCC2)oc2ccc3nc(N(C)C)sc3c12	0.07	0.45
O=C(COc1ccccc1)N(NC(=O)C(c1ccccc1)(c1ccccc1)c1ccc(O)cc1)c1ccccc1	0.26	.

Further results.
SMILES	CapD inh	AID504770
COc1ccc(C(Cc2ccc3ccccc3n2)Oc2nc(C)cc(C)n2)cc1 (centres undefined)	-0.07	.
COc1cc(OC)cc(-n2nc(C(=O)NCc3ccccc3OC)c3ccccc3c2=O)c1	-0.32	1
COc1ccc(/C=C2\C=C(c3ccccc3)N(c3cccc(C(=O)O)c3)C2=O)cc1Br	1.1	.
CCOC(=O)c1c(N)sc(C)c1C	-0.58	-1.1
CCOC(=O)c1c(-c2ccccc2)oc2c1cc(OC(=O)c1ccc(OCC)cc1)c1ccccc12	-0.075	.
Cc1ccccc1C(=O)Nc1cccc(N(C)C)c1	-0.84	-0.75
C=CCn1c(-c2ccc(OC)c(OC)c2)cs/c1=N\c1ccccn1	0.51	0.25
COc1ccc(S(=O)(=O)NCC(c2cccnc2)N2CCN(C)CC2)cc1OC (centres undefined)	.	0.2
O=S(=O)(NCCCc1ccccc1)c1cccc2nsnc12	-0.34	-0.75
COCC(C)NCc1cccc(OC)c1 (centres undefined)	-1.3	2.7
COc1ccc(C(=O)COC(=O)c2ccc(N)cc2)cc1	0.26	1.4
Cc1cc(C(=O)N2CCCc3ccccc32)no1	-0.45	-1.4
CC1(C)CC(=O)CC(=NCC(=O)O)C1	0.53	0.25
COc1cccc(NC(=O)CSc2nnc3ccccn23)c1	0.7	-0.7
O=C(CSc1nc(-c2ccccc2)cc(=O)[nH]1)NCC1CCCO1 (centres undefined)	0.71	0.25
COc1ccc(NC(=O)CCc2nc3ccc(C)cc3[nH]2)c(OC)c1	.	0.3
COC(=O)c1sc(N)c(C(=O)OC)c1CN1CCOCC1	.	-0.15
CCCC(=O)Nc1cccn(Cc2cccc(OC)c2)c1=O	.	0.8
CCc1ccc(NC(=O)N(CCC(C)C)C(C)c2ccco2)cc1 (centres undefined)	-0.84	-0.5
CCNc1nc(-c2ccc(C)cc2)cs1	0.34	-0.15
COc1cc(/C=C2\SC(=S)N(CC(=O)Nc3ccccc3C(=O)O)C2=O)cc(OC)c1OC	-0.21	.
Cn1cc(CCC(=O)NCCCN2CCC(N3CCCCC3)CC2)c2ccccc21	0.64	-0.3
COc1cccc(C2CC(c3ccccc3)=NN2C(=O)CCC(=O)O)c1OC (centres undefined)	0.24	.
C(=NCc1cccnc1)c1ccc2c(c1)OCO2	0.2	-1
CS(=O)(=O)Nc1ccc(C(=O)N2CCCCC2)cc1	-0.27	-0.65
CCN(CC)CCNc1nc2c(c(=O)n(C)c(=O)n2C)n1Cc1ccc(Br)cc1	-0.21	.
Cn1nc(C(C)(C)C)cc1C(=O)NN1CCOCC1	0.6	-0.1
O=C(O)CCC(=O)N1CCC(c2nc(-c3cccnc3)no2)CC1	-0.3	.
CCN1CCN(C(c2cccs2)C(C)NC(=O)C(C)C)CC1 (centres undefined)	-5.4*	-0.05
NS(=O)(=O)c1ccc(CCN2CC3=C(C2=O)C(c2ccccc2)NC(=O)N3)cc1 (centres undefined)	.	-0.45
O=C1CCCC2=C1C(c1cccnc1)c1c(ccc3ncccc13)N2 (centres undefined)	18	0.15
O=C(COc1ccccc1)Nc1ccc(I)cc1	-0.27	2
Cc1ccc(N=Cc2ccc(F)cc2)c(C)c1	-0.22	-0.45
COC(=O)c1c(NC(=O)CSc2nnc(-c3cccnc3)n2C)sc2c1CCC2	-0.27	-1.1
COC1C(OC)N(S(C)(=O)=O)CCN1S(C)(=O)=O (centres undefined)	0.25	0.55
S=C(NCCc1ccncc1)NC1CCCCC1	0.9	-1.2
Nc1nc(NS(=O)(=O)c2ccccc2)ns1	-0.14	-2.9*
N#Cc1cnn(-c2ccccc2)c1N	0.045	0.1
O=S(=O)(CCN1C=CC(C(F)(F)F)=NCC1)c1ccc(F)cc1	-3.3	0.7
Cc1nc(N2CCN(C(=O)c3ccco3)CC2)c2c3c(sc2n1)CC(C(C)(C)C)CC3 (centres undefined)	.	0.15
CCCCCCCCNC(C)C(O)c1ccc(SC(C)C)cc1 (centres undefined)	0.075&0.1	-0.3
Cc1ccc(-c2noc(C3CCN(C(=O)Nc4cc(C)cc(C)c4)CC3)n2)cc1	-0.38	.
CN(C(=O)c1cccc(N)c1)c1ccccc1	-0.41	-0.5
COc1ccccc1NC(=O)c1ccc(-c2csnn2)cc1	1.7	-0.1
COc1ccc(CCNC(=O)c2cccs2)cc1OC	0.54	-0.4
CN(C)C(C/C=N/Nc1ncc(C(F)(F)F)cc1Cl)=C(C#N)C#N	-1.4	.
Cc1cccc(NC(=O)CNC(=O)OCc2ccccc2)c1	-0.06	-1.1
Cc1cc(-n2c(C)cc(CNC3CC(C)(C)NC(C)(C)C3)c2C)no1	.	-0.35
Cc1cc(C)c2nc(C(F)(F)F)nc(NCc3ccc4c(c3)OCO4)c2c1	4.4	1.4
O=C(NCCc1c[nH]c2ccccc12)c1ccc2c(=O)n(Cc3ccccc3Cl)c(=S)[nH]c2c1	0.85	.
CN(C)c1ccc(CN2CCN(C(=O)OCCSCCNC(=O)c3sc4ccccc4c3Cl)CC2)cc1	-0.29	.
O=C(COC(=O)CSc1ccc2ccccc2c1)NC1CC1	0.54	0.3
c1ccc(CN2CCC(NN3CCOCC3)CC2)cc1	0.48	0.5
O=C1CSc2ccc(C(=O)NCCCn3ccnc3)cc2N1	.	-0.6
CN(C)c1ccc(C(C(=O)NCc2ccccc2)N(Cc2ccco2)C(=O)c2snc(C(N)=O)c2N)cc1 (centres undefined)	.	1.5
COc1ccc(C(=O)NNC(=O)c2cnn(-c3ccc([N+](=O)[O-])cc3)c2C(F)(F)F)c(OC)c1	1.2	.
COc1cc(-c2noc(-c3nnn(-c4cccc(Cl)c4C)c3C)n2)cc(OC)c1OC	0.49	-0.35
COC(=O)C1C(=O)C2=C(CC1C)Nc1ccccc1NC2c1cccc(Br)c1 (centres undefined)	38	1.1
O=C(CSc1nc2ccccc2c(=O)n1CC1CCC(C(=O)NCc2ccccc2)CC1)NCC1CCCO1 (centres undefined)	-0.18	.
c1ccc(-c2cc(N3CCCCC3)c3ccccc3n2)nc1	5.4	-0.2

New compounds follow
SMILES	CapD inh	AID504770
CCN1C(=O)c2cccc3c(NC(=O)c4ccc(S(=O)(=O)N5CCCCC5)cc4)ccc1c23	-0.4	.
COc1ccc(-n2c(C)cc(-c3csc(/N=C/N(C)C)n3)c2C)cc1	.	0.65
COc1ccc(CC(=O)N2CCCC2)cc1	0.41	0.15
CSc1ncc(Cl)c(C(=O)Nc2cccnc2)n1	-0.49	0.15
CC1=C(C(=O)OCC2CCCO2)C(c2ccccc2OCc2ccccc2)NC(=O)N1 (centres undefined)	0.56	.
